LANA-H2B inh – blocks KSHV LANA binding to histone H2A/H2B | cell-free LANA-H2A/H2B peptide, fluorescence polarization | inhibition, % (no concentration beside the values) | actives 0.6% (n = 320,000) | AID 2629; in the data active means inhibition mostly above about 10%, no sharp cut-off; inactive means mostly below about 6.7%;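 further: stock transfer was 7.5 nL into about 10 µL; 0% = median of vehicle wells and 100% = median of positive control wells; one replicate is shown; the record names a cut of 25% in any replicate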
A1 inh – inhibitors of the anti-apoptotic protein A1, read as caspase activation. MEF A1-2A-BIM cells, Caspase-Glo 3/7 luminescence, 3 h; percent of clofoctol response, vehicle zero. AID 2462. actives 0.066% (n = 330,000). caspase activation, % (no concentration beside the values);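 active means over half of replicate activation scores above 10%, or exactly half above 10 with the replicate mean above 10; inconclusive means replicate mean below 10 yet half the replicates above 10; inactive means over half of replicates below 10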;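 further: wells of about 30 µL received 50 nL stock; many hits fall short of the cut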
T cruzi inh – T. cruzi replication inhibition; T. cruzi beta-gal in NIH3T3, luminescence, 90 h; inhibition, % (no concentration beside the values); actives 1.4% (n = 300,000);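 active means mean inhibition across valid replicates above about 55%, limit read from the data; inconclusive means mean below that limit but half or more replicates reach it; inactive means mean below it, under half of replicates reach it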;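 further: signal also drops with host cell toxicity which is not excluded here; 0% = plate median of DMSO wells and 100% = zero luminescence signal; higher percent means less beta-gal luminescence so fewer parasites; stock transfer was 50 nL into about 50 µL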
UCH37 DUB inh – human UCH37 deubiquitinating enzyme inhibition. actives 0.33% (n = 330,000). AID 588478. inhibition, % (concentration not given with the values). purified proteasome/UCH37, Ub-AMC cleavage fluorescence;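 active means mean of two replicates above 20%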;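 further: 0% = compound-free wells with enzyme and 100% = wells lacking proteasome; stock transfer was 100 nL into about 20 µL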
Target sequence (Q9Y5K5 whole entry, looked up): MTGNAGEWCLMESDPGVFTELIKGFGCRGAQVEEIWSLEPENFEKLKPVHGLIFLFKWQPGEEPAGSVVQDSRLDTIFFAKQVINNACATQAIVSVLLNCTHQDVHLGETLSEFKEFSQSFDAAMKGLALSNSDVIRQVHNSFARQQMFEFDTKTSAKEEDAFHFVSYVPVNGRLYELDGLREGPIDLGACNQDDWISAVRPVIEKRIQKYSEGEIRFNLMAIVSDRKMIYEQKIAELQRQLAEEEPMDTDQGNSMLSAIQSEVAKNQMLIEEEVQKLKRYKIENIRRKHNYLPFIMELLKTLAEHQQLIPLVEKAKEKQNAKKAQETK
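Material: Human UCH37 enzyme supplied as purified proteasome complex | Schedule: 30 min compound-proteasome preincubation then 25 min substrate reaction, room temperature | Detection: AMC fluorescence from Ub-AMC cleavage, excitation 355 nm, emission 460 nm | Benchmarks: Wells without proteasome as full block, compound-free enzyme plus substrate as uninhibited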
RanGTP-Impb inh – inhibitors of RanGTP-importin-beta interaction, primary screen, biochemical, FRET, CFP-Ran, YFP-importin-beta, homogeneous; cell-free CFP-Ran/YFP-importin-beta FRET ratio; inhibition, % (concentration not given with the values); actives 1.1% (n = 300,000); AID 2216;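 active means most replicates above 15%; inconclusive means exactly half above 15%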;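 further: 0% = DMSO wells and 100% = Ran loaded with GDP instead of GTP; wells of about 40 µL received 100 nL stock; the first replicate is given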
Beta cell apopt – beta cell apoptosis inhibition; INS-1E cytokine-induced death, ATP luminescence, 48 h; percent of positive-control rescue, neutral wells zero; protection from apoptosis, % (concentration not given with the values); actives 0.8% (n = 300,000); AID 435005;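 active means all replicates at 75% or more, or half of them and the mean; inconclusive means half reach 75% but not the mean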;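 further: 0% = cytokine-treated negative control wells and 100% = positive control rescue; higher means more ATP so stronger rescue from cytokine killing; wells of about 40 µL received 100 nL stock; the first replicate is given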
Beta2AR agonist – agonists of human beta-2 adrenergic receptor inducing internalization; P07550; Am2.2-beta2AR cells, FAP receptor internalization, flow cytometry; reference of the scale not given here; response, % (no concentration beside the values); actives 0.43% (n = 340,000); AID 504454;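 active means response above a set limit, near 3 SD of response in nonfluorescent compounds, cut at about 42% in these data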;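 further: stock transfer was 100 nL into about 11 µL; a reference agonist was the positive control; negative values mostly stem from fluorescent compounds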
Target sequence (P07550 whole entry, looked up): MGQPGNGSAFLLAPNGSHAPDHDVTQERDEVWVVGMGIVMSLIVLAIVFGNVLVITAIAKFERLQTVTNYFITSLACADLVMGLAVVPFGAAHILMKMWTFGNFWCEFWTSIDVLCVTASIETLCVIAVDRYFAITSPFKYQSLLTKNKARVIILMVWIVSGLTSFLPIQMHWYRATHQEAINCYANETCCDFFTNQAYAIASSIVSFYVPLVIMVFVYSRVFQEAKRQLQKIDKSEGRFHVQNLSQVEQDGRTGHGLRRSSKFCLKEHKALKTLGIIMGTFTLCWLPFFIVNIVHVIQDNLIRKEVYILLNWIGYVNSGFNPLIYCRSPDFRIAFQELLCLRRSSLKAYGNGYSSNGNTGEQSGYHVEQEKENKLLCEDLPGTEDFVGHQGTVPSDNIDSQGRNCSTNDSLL
Calb FLC – C. albicans growth modulation with fluconazole; C. albicans CaCi-2 (fluconazole-resistant clinical isolate) + fluconazole, Alamar Blue growth, 48 h; growth inhibition, % (test concentration not listed); actives 0.57% (n = 300,000); AID 1979;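 active means most replicates above 75%; inconclusive means exactly half above 75%; inactive means most below 75%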;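 further: all wells also contain fluconazole at 8 µg/ml as a sub-toxic cotreatment; 0% = median of DMSO wells and 100% = median of geldanamycin control wells; wells of about 8 µL received 7.5 nL stock; the first replicate is given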
An asterisk follows results filed as active; ? = inconclusive; / = not tested or not shown.

SMILES | LANA-H2B inh | A1 inh | T cruzi inh | UCH37 DUB inh | RanGTP-Impb inh | Beta cell apopt | Beta2AR agonist | Calb FLC
COc1cc(NS(=O)(=O)c2ccc(N/C=C(\C=O)c3nc4cc(Cl)ccc4o3)cc2)nc(OC)n1 | -5.4 | 0.0 | -14 | 2.8 | -14 | -21 | 2 | ?
COc1cc2c(cc1OC)CN(C(=O)c1ccc(N3CCCC3)c([N+](=O)[O-])c1)CC2 | 4.7 | 0.1 | 2 | 4.0 | / | 4 | -19 | -1
N#C/C(=C\c1c(N2CCCCCC2)nc2ccccn2c1=O)C(=O)NCc1ccco1 | 6.8 | -0.2 | 27 | 3.4 | 5.7 | 10 | -18 | -2
O=C(NC1CCCC1)C(c1ccccc1)N(Cc1ccco1)C(=O)Cc1cccs1 (stereo not given) | -2.1 | 1.7 | 13 | 0.8 | ? | -13 | 4 | -7
COc1ccc2c(c1)cc(C(=O)N[C@@H](CCSC)C(=O)N1CCC(C(=O)O)CC1)n2C | 3.3 | -0.3 | -8 | -135 | -2.3 | 1 | -3 | -3
CCCc1nc2sc3c(c2c(=O)n1NC(=O)CCCl)CCCC3 | -2.0 | -0.5 | 1 | 0.1 | 3.0 | 0 | 1 | -1
COc1ccc(CCC(=O)Nc2cc(S(=O)(=O)N3CCOCC3)ccc2OC(C)C)cc1 | -11 | -0.6 | / | 4.0 | / | 0 | 10 | /
CCOc1ccc(N2C(=O)CC(SCCN)C2=O)cc1 (stereo not given) | 3.2 | -5.6 | 1 | 2.0 | 3.0 | 1 | -8 | -1
O=C(NC1CCCCC1)N1CCN(Cc2nc3ccccc3c(=O)[nH]2)CC1 | -2.3 | 0.3 | -6 | 5.3 | 0.4 | 1 | -1 | -3
COc1cc(NC(=O)c2cccs2)c(OC)cc1NC(=O)c1cccs1 | -0.2 | 1.3 | -13 | -9.2 | ? | 2 | -15 | 15
O=C(CCNC(=O)c1ccccc1Cl)OCC(=O)c1ccccc1 | -6.5 | -0.2 | -10 | -2.4 | ? | -4 | 2 | -1
CCn1c(=O)c(-c2ccccc2)c(O)c2ccccc21 | 1.3 | -0.7 | -12 | 1.3 | -1.5 | -7 | -3 | -1
Cc1ccc(OCC(O)Cn2c(N3CCCCC3)nc3c2c(=O)[nH]c(=O)n3C)cc1C (stereo not given) | -5.9 | -0.1 | 3 | 0.4 | 1.6 | 1 | -1 | 11
CCOC(=O)c1cnn(-c2nc(-c3cccc(F)c3)cs2)c1C(F)(F)F | -0.6 | 0.3 | -4 | -7.7 | -2.2 | -2 | 0 | 4
Cc1ccc(NC(=O)Nc2nnc(Cc3ccc([N+](=O)[O-])cc3)s2)cc1C | 1.1 | 1.3 | 15 | 2.0 | -4.3 | / | 2 | 10
CCN1CCCc2cc(CN(CCN3CCOCC3)C(=S)Nc3ccc(C)cc3)ccc21 | -6.1 | 0.8 | 41 | -0.4 | 1.0 | -5 | 3 | -10
COCC(=O)Nc1nnc(COc2ccc(Cl)cc2)s1 | 4.3 | 0.5 | -6 | 0.2 | 26* | -6 | 3 | -2
C=CCn1c(SCC(=O)Nc2ccc(N(C)C)cc2)nnc1-c1cccc(C)c1 | -1.4 | 0.9 | 13 | 1.1 | 3.6 | -1 | -1 | 15
C1=CCC(/C=N/n2cnnc2)CC1 (stereo not given) | 1.4 | 0.4 | -42 | / | 7.4 | -5 | -1 | 2
COCCNC(=S)N/N=C(\C)c1ccc(Cl)c(Cl)c1Cl | 2.7 | -0.1 | 0 | / | -1.7 | -6 | 5 | -29
COc1ccc(C(=O)Nc2cc(C)c(NC(=O)c3ccccc3OC)cn2)cc1 | -3.7 | -0.2 | 7 | -26 | -3.4 | 7 | -12 | -1
COCc1nc2ccccc2n1CCCOc1ccccc1 | 2.4 | 0.7 | -6 | 5.4 | 1.3 | -3 | 1 | -16
CN(C)S(=O)(=O)N1CCC(Oc2ccc(C(=O)NC3CCOC(C)(C)C3)cc2)CC1 (stereo not given) | -1.3 | -0.2 | -7 | 5.8 | 0.3 | 0 | -2 | -2
Cc1ccc(S(=O)(=O)Nc2cc3c(C(=O)O)c(C)oc3c3ccccc23)c(C)c1 | -2.5 | 1.6 | 1 | 4.2 | -2.0 | 1 | 8 | 36
CCC(C(=O)OCC(=O)Nc1ccc(C)c(S(=O)(=O)N2CCOCC2)c1)c1ccccc1 (stereo not given) | 3.0 | 1.3 | ? | 0.9 | 1.7 | 3 | -2 | -9
CC1(C)CC(=O)C=C(c2ccc3ccccc3c2)C1 | 4.5 | -0.1 | / | 4.5 | / | 2 | 1 | /
CC(C)[C@H](NC(=O)c1ccccc1)C(=O)OCC(=O)c1ccccc1F | 3.5 | 1.6 | -11 | 0.3 | 5.0 | -2 | 1 | 2
Cc1nc2ccccc2c(=O)n1NC(=O)Cc1ccc(Br)cc1 | -2.5 | 0.8 | 14 | 4.9 | -1.4 | -3 | 4 | -20
Cc1ccc(N(CC(=O)NCC2CCCO2)C(=O)CCC(=O)Nc2nccs2)cc1C (stereo not given) | -2.3 | -0.4 | 8 | 3.2 | 3.4 | 3 | -5 | 15
COc1ccc2c(c1OC)C(=O)N(c1nc(SC)n[nH]1)C2=O | -2.5 | -0.4 | 2 | 3.8 | 1.9 | -5 | -1 | -2
CN(Cc1ccco1)C(=O)C1CCCN(c2ncnc3c2nc2n3CCCCC2)C1 (stereo not given) | 2.3 | -0.9 | 5 | 0.0 | 2.9 | 1 | -11 | 3
CCCC(C(=O)NCc1ccco1)N(C(=O)CNS(=O)(=O)c1ccccc1)c1ccc(OC)cc1 (stereo not given) | 0.6 | -0.1 | 9 | 3.7 | -0.2 | -2 | -1 | 1
CCOc1ccc(-c2nnn(CC(=O)Nc3cc(OC)cc(OC)c3)n2)cc1OCC | -0.9 | 0.5 | 28 | 4.0 | -5.3 | 2 | -1 | -6
CC(=O)N/C(=C\c1ccccc1)C(=O)OCc1ccc(F)cc1 | 2.6 | -1.3 | -3 | -0.2 | -5.0 | -3 | -1 | 2
CCOC(=O)N1CCN(C(=O)c2ccc(Cl)c(NC(=O)c3cccs3)c2)CC1 | -3.0 | -0.1 | / | 0.4 | / | -1 | -11 | /
CCn1c(SCC(=O)Nc2ccc(C(=O)OC)cc2)nc2cccnc21 | -1.1 | 0.9 | -5 | 1.5 | 0.2 | -2 | -7 | -4
COC(=O)c1ccccc1S(=O)(=O)Oc1ccc(-c2ccc(C(=O)O)cc2)cc1 | 2.3 | 1.6 | -14 | 3.6 | 0.3 | / | -2 | 6
COC(=O)c1ccc(-c2cc3onc(-c4ccccc4)c3c(=O)n2C)cc1 | 2.1 | -1.8 | / | -4.9 | / | 1 | 5 | /
Cc1ccccc1N(CC(=O)NCC1CCCO1)C(=O)CNS(=O)(=O)c1ccc(F)cc1 (stereo not given) | -2.9 | 0.1 | -3 | 0.4 | 4.1 | 2 | -2 | 1
COc1ccccc1C(CCN(Cc1ccccc1)C(C)=O)c1ccco1 (stereo not given) | -8.8 | 0.3 | 5 | 2.1 | 1.6 | -9 | -1 | 2
c1ccc(Oc2cccc(OCCCCSc3ncccn3)c2)cc1 | 2.2 | 0.9 | 22 | 1.3 | 1.1 | 1 | 9 | -2
COc1ccc(/C(O)=C2/C(=O)C(=O)N(CCN3CCOCC3)C2c2cccnc2)cc1OC (stereo not given) | / | / | 4 | 9.6 | -0.3 | / | -2 | -6
CNC(=O)c1ccccc1-c1ccccc1 | -2.8 | -1.4 | -9 | -1.5 | -1.6 | -6 | -5 | -3
c1ccc(-n2c(-c3ccncc3)nnc2-c2ccco2)cc1 | -8.5 | 0.1 | -4 | -0.5 | 1.2 | -5 | 6 | -12
O=C(O/N=C1\C(=O)N(c2ccccc2)c2ccccc21)C1CC1 | 6.8 | 0.2 | -12 | / | -1.6 | -6 | 0 | 11
COc1cc(C(C)=O)ccc1OCC(=O)c1cc(C)n(C2CC2)c1C | -1.9 | 0.6 | 3 | 1.1 | ? | -1 | -2 | 0
Cc1cc(C)cc(NS(=O)(=O)c2cc3[nH]c(=O)c(=O)[nH]c3cc2C)c1 | -2.1 | 1.6 | 5 | 3.5 | -1.8 | -4 | 1 | 17
Cc1ccc(C(=O)c2oc3ccc(Cl)cc3c2NC(=O)CN2CCN(C)CC2)cc1 | 0.0 | 1.2 | 30 | 3.5 | -3.6 | 23 | 28 | 3
CC(=O)Nc1ccc(NC(=O)Nc2cccc(C)c2C)cc1 | 12 | 0.0 | -9 | 4.2 | 4.4 | 2 | -3 | -4
CCOC(=O)c1cc(-c2ccccc2)sc1N | 1.0 | -0.2 | 9 | 1.2 | 1.8 | -2 | 0 | -1
(continued)
SMILES | LANA-H2B inh | A1 inh | T cruzi inh | UCH37 DUB inh | RanGTP-Impb inh | Beta cell apopt | Beta2AR agonist | Calb FLC
CCCN1C/C(=C/c2ccc3c(c2)OCO3)C(=O)/C(=C/c2ccc3c(c2)OCO3)C1 | -2.3 | -0.3 | -2 | 2.9 | ? | -3 | 24 | -31
Cc1cccc(Oc2nc(-c3cccc([N+](=O)[O-])c3)nc3ccccc23)c1C | 7.3 | -0.7 | -3 | 1.1 | 21* | 0 | -6 | 3
NC(=O)CC(NC(=O)Cc1cccc2ccccc12)c1ccc(N2CCCCCCC2)c([N+](=O)[O-])c1 (stereo not given) | 1.6 | 0.0 | 22 | 5.7 | -2.2 | 0 | -2 | -1
CC1(C)C2CCC1(CS(=O)(=O)NCCc1c[nH]c3ccccc13)C(=O)C2 (stereo not given) | -0.2 | -0.1 | 6 | 0.1 | ? | -3 | 12 | 2
O=C(CSc1nc2ccccc2n1S(=O)(=O)c1ccccc1)N1CCCC1 | 5.5 | 0.0 | -8 | 1.9 | ? | -6 | 1 | -13
Cc1ccc(O)c(NC(=O)C2CCCN2C(=O)OCc2ccccc2)c1 (stereo not given) | 1.0 | -0.2 | 5 | 4.5 | -3.7 | -9 | 0 | -2
CC1CCC(C(C)C)C(OC(=O)CSc2n[nH]c(=O)[nH]c2=O)C1 (stereo not given) | 5.8 | 0.8 | 1 | 1.4 | -0.5 | 10 | 2 | -9

Looked up by structure from the entries so far:
SMILES | LANA-H2B inh | A1 inh | T cruzi inh | UCH37 DUB inh | RanGTP-Impb inh | Beta cell apopt | Beta2AR agonist | Calb FLC
CC1(C)C2CCC1(CS(=O)(=O)NCCc1c[nH]c3ccccc13)C(=O)C2 (stereo not given) | -0.2 | -0.1 | 6 | 0.1 | ? | -3 | 12 | 2
Cc1ccc(O)c(NC(=O)C2CCCN2C(=O)OCc2ccccc2)c1 (stereo not given) | 1.0 | -0.2 | 5 | 4.5 | -3.7 | -9 | 0 | -2
CCCN1C/C(=C/c2ccc3c(c2)OCO3)C(=O)/C(=C/c2ccc3c(c2)OCO3)C1 | -2.3 | -0.3 | -2 | 2.9 | ? | -3 | 24 | -31

Assay outcomes from PubChem BioAssay.

Compounds were not picked by outcome; any-hit rate near 4.3%.
